Compound activity (PubChem)
KCNQ2 enhance: potentiators of rat KCNQ2 potassium channel; Potassium voltage-gated channel subfamily KQT member 2 (Rattus norvegicus), O88943; AID 2239, 2010; B-score at 10 µM; 0.54% of 310,000 active; CHO-K1 KCNQ2, FluxOR thallium flux fluorescence; active compounds read high;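 active = fluorescence ratio B-score at least 3 SD of library B-scores, with initial fluorescence B-score within 3 SD, cut at about 5.3 in these data; same plate scores as AID 2156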;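 also: B-score of peak minus minimum over baseline fluorescence ratio after K+ and Tl+ stimulus; positive B-score means potentiation of KCNQ2 with more thallium influx and brighter signal; only the inactives scoring about 0 or higher are listed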
Target sequence (O88943 whole entry, looked up): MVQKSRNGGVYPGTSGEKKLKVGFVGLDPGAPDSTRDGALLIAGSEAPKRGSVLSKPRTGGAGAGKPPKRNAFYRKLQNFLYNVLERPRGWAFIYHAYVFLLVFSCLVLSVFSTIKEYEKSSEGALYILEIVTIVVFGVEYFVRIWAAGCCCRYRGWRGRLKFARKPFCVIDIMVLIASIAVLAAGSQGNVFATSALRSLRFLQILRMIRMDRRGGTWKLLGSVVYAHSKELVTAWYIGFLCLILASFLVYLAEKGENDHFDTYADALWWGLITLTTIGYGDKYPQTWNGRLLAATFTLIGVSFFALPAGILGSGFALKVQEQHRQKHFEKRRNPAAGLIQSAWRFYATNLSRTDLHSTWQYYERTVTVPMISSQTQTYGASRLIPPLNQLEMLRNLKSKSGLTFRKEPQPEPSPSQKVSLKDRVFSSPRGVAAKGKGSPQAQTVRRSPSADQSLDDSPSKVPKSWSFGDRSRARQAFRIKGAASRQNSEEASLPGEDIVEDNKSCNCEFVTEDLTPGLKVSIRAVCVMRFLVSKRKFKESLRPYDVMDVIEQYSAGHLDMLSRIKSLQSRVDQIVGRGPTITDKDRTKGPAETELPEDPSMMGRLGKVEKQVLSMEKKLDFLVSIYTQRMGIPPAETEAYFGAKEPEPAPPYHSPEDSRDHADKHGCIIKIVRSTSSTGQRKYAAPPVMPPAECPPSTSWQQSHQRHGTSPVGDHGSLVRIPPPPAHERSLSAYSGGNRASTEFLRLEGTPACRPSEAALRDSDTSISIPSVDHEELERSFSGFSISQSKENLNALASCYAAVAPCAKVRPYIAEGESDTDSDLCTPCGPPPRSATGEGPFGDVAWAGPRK
KCNQ2 enhance baseline: also measured in KCNQ2 enhance; calls as there; B-score; compound at 10 µM; measured here: initial fluorescence intensity artifact check;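 brightness before thallium and not channel activity; 0 = typical well and far values either way flag optical interference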
Numbers without * were called inactive.

The opening seven compounds, ahead of the listing:
| mol | KCNQ2 enhance | KCNQ2 enhance baseline |
| --- | --- | --- |
| CCC(C)C1(CC)C(=O)NC(=O)N=C1N (stereo unspecified) | 0.19 | 0.11 |
| CCC(C)N1CCN(C(=O)Cc2ccccc2)CC1 (stereo unspecified) | 0.06 | 0.54 |
| O=c1c2ccccc2nc(-c2ccccc2)n1-c1nccs1 | 0.12 | 0.35 |
| COc1ccc(CCNCc2ccccc2F)cc1 | 1.29 | -0.05 |
| O=c1oc2ccccc2c(O)c1C(c1ccccn1)c1c(O)c2ccccc2oc1=O | 0.99 | -0.39 |
| CC(Cc1ccccc1)NC(=O)Cc1ccc([N+](=O)[O-])cc1 (stereo unspecified) | 1.17 | -3.47 |
| c1cncc(C2CC(c3cccs3)n3ncnc3N2)c1 (stereo unspecified) | 1.03 | -1.82 |

The listing, repeating the preview:
| mol | KCNQ2 enhance | KCNQ2 enhance baseline |
| --- | --- | --- |
| CCC(C)C1(CC)C(=O)NC(=O)N=C1N (stereo unspecified) | 0.19 | 0.11 |
| CCC(C)N1CCN(C(=O)Cc2ccccc2)CC1 (stereo unspecified) | 0.06 | 0.54 |
| O=c1c2ccccc2nc(-c2ccccc2)n1-c1nccs1 | 0.12 | 0.35 |
| COc1ccc(CCNCc2ccccc2F)cc1 | 1.29 | -0.05 |
| O=c1oc2ccccc2c(O)c1C(c1ccccn1)c1c(O)c2ccccc2oc1=O | 0.99 | -0.39 |
| CC(Cc1ccccc1)NC(=O)Cc1ccc([N+](=O)[O-])cc1 (stereo unspecified) | 1.17 | -3.47 |
| c1cncc(C2CC(c3cccs3)n3ncnc3N2)c1 (stereo unspecified) | 1.03 | -1.82 |
| CN1CCCN(C(=O)COc2ccccc2Br)CC1 | 1.76 | 0.02 |
| CCCC1(CCC)C(=O)NC(=Nc2ccccc2)NC1=O | 1.27 | -0.79 |
| NP(=O)(OCCCc1ccccc1)c1ccccc1 (stereo unspecified) | 0.06 | 0.19 |
| O=C1NC(=O)C2(Cc3ccccc3N3CCCC32)C(=O)N1c1ccc(Cl)cc1 (stereo unspecified) | 0.01 | -0.39 |
| O=C1CC(c2cccnc2)=NN1c1ccccc1 | 0.31 | -1.8 |
| Cc1ccc(C2(O)CC(C)N(C)CC2C)cc1 (stereo unspecified) | 0.65 | -0.46 |
| CCOc1ccc(CC2(CCc3ccncc3)C(=O)NC(=O)NC2=O)cc1 | 0.01 | -1.71 |
| O=C(CN1CC=C(c2ccccc2)CC1)NC(=O)NCc1ccco1 | 0.02 | -1.43 |
| O=C(O)C(O)(c1ccccc1)C1CCCCC1 (stereo unspecified) | 0.08 | -0.93 |
| C[N+]1(C)CCC(OC(=O)C(c2ccccc2)c2ccccc2)CC1 | 0.31 | -0.32 |
| Cc1ccc(-c2nn(Cc3ccccc3)cc2C(=O)O)cc1 | 0.93 | -1.29 |
| CC1=NOC2(C)Nc3ncnn3C(c3ccccc3)C12 (stereo unspecified) | 1.01 | -0.48 |
| Cc1cccc(C)c1OP(N)(=O)OCC(F)(F)F (stereo unspecified) | 0.65 | 0.46 |
| COC(=O)C1=Nc2ccccc2/C1=C\c1c(O)n(C)c(=O)n(C)c1=O | 1.89 | -0.83 |
| CC(=NCc1cccnc1)c1c(O)n(-c2ccccc2C)c(=O)[nH]c1=O | 1.29 | -0.61 |
| CCOc1ccc(C2SCC(=O)Nc3c2c(C)nn3C2CCOC(C)(C)C2)cc1 (stereo unspecified) | 0.79 | -0.56 |
| CCOP(=O)(OCC)C(NC(=O)Cc1ccccc1)C(Cl)(Cl)Cl (stereo unspecified) | 0.27 | -0.31 |
| CCOc1cccc(=NC2CCCCC2)c2c(C)n(C)c(C)c12 | 2.61 | -0.22 |
| Cc1nc2cc(C(F)(F)F)ccc2n1C1CCN(Cc2nnnn2Cc2ccc3c(c2)OCO3)CC1 | 0.1 | -0.32 |
| Cn1c(O)c(C=NCCCNC2CCCCC2)c(=O)n(C)c1=O | 0.51 | 2.46 |
| CCC1(C(=O)c2ccc(C)cc2)C2c3ccccc3OC(=O)C21C(=O)O (stereo unspecified) | 0.08 | -2.12 |
| COc1ccccc1-n1c(O)c(C=NCCN2CCNCC2)c(=O)[nH]c1=O | 1.94 | -0.61 |
| Cc1ccc2c(c1)C1CN(C)CCC1N2C(=O)Nc1cccc(Cl)c1 (stereo unspecified) | 0.97 | -1.39 |
| COc1ccc(OCC(=O)N2CCN(Cc3ccc4c(c3)OCO4)CC2)cc1 | 0.55 | 0 |
| CCOP(=O)(OCC)C(NC(=O)c1ccccc1)C(Cl)(Cl)Cl (stereo unspecified) | 0.76 | -0.38 |
| CSc1ncc(CN2CCCC(C(=O)c3ccccc3SC)C2)cn1 (stereo unspecified) | 1.41 | 0.73 |
| N/C(=N\[N+](=O)[O-])N1CCN(C(=O)c2ccccc2)CC1 | 0.66 | -0.87 |
| Clc1ccc(OCC#CCN2CCCC2)cc1 | 0.28 | -0.76 |
| COC(=O)[C@]1(C)C[C@H]1[C@H](NP(=O)(c1ccccc1)c1ccccc1)c1ccccc1 | 0.1 | -0.57 |
| O=c1[nH]c(=O)n(-c2cccc3ccccc23)c(O)c1/C=N/N1CCCCC1c1cccnc1 (stereo unspecified) | 1.15 | 1.29 |
| CCCCCCNc1nc(OC)nc(N2CC3CC(C2)c2cccc(=O)n2C3)n1 (stereo unspecified) | 0.45 | 0.34 |
| CN1CC(C(=O)c2ccc(Cl)cc2)C(c2ccccc2)C1 (stereo unspecified) | 0.39 | 0.04 |
| Cn1c(O)c(Cc2ccc(OCc3ccccc3)cc2)c(=O)n(C)c1=O | 0.99 | -1.2 |
| CCOC(=O)C(O)(c1ccc(N=Cc2ccccc2O)c(C)c1)C(F)(F)F (stereo unspecified) | 0.01 | 1.09 |
| Oc1ccc(CC2CC3CCN2CC3)cc1O (stereo unspecified) | 0.12 | 0.03 |
| COc1ccc(/C=N\N=C(N)N)cc1 | 1.1 | 0.43 |
| Cc1ccc2nc(N3CCN(C)CC3)[nH]c2c1 | 0.57 | 3.65 |
| COc1ccc(CCn2c(O)c(C=NCCCn3ccnc3)c(=O)[nH]c2=O)cc1OC | 0.03 | 1.08 |
| C=CCn1c(O)c(C(C)=NCc2ccc3c(c2)OCO3)c(=O)[nH]c1=O | 1.86 | -0.02 |
| Cn1c(O)c(C=Nc2ccccc2Sc2ccccc2)c(=O)n(C)c1=O | 1.33 | -0.05 |
| COC(=O)CCCC(NC(=S)N1CC2C[C@@H](C1)Cn1c2cccc1=O)C(=O)OC (stereo partly specified) | 0.45 | 0.44 |
| O=C1CC(N2CC=C(c3ccc(F)cc3)CC2)C(=O)N1c1ccc(F)cc1 (stereo unspecified) | 1.61 | -0.27 |
| CSc1ccc(C(c2c(O)c3ccccc3oc2=O)c2c(C)n(C)n(-c3ccccc3)c2=O)cc1 (stereo unspecified) | 1.98 | -0.3 |
| Fc1ccc(CNCCc2ccccc2F)cc1 | 0.14 | 1.05 |
| O=c1[nH]c(=S)n(-c2ccccc2F)c(O)c1C=Nc1ccc(N2CCOCC2)cc1 | 0.41 | -1.07 |
| CC12CCCCC1=[N+]([O-])CN2O (stereo unspecified) | 0.58 | 4.14 |
| CCOP(=O)(OCC)C(NC(=O)c1ccc(C)cc1)=C(Cl)Cl | 1.55 | -0.62 |
| CN1c2ccc([N+](=O)[O-])cc2CC2(C(=O)NC(=O)N(c3ccc(Br)cc3)C2=O)C1c1ccccc1 (stereo unspecified) | 0.51 | -0.89 |
| Nc1ncnc2c1ccn2[C@@H]1O[C@H](CO)[C@@H](O)[C@H]1O | 1.96 | -1.28 |
| CNC(=O)N(C)c1nnc(C(C)(C)C)s1 | 0.67 | -0.66 |
| CCCCOCCCn1c(N)c(C(=O)OCCOC)c2nc3ccccc3nc21 | 0.96 | -1.51 |
| CCOP(=O)(OCC)C(O)c1cccnc1 (stereo unspecified) | 0.37 | 0.52 |
| Cn1c(O)c(C(=NCCN2CCCCC2)c2ccccc2Cl)c(=O)n(C)c1=O | 1.41 | -1.01 |

The list continues.
| mol | KCNQ2 enhance | KCNQ2 enhance baseline |
| --- | --- | --- |
| COC(=O)C1=C(c2cc3ccccc3o2)C[C@@H]2CC[C@H]1N2C(=O)NCCCOC(C)C | 0.14 | -1.43 |
| COc1ccccc1N1C(=O)NC(=O)/C(=C/c2ccc3c4c(cccc24)CC3)C1=O | 0.13 | 0.01 |
| O=c1[nH]c(=O)n(Cc2ccccc2)c(O)c1/C=N/Nc1c(F)c(F)c(F)c(F)c1F | 0.36 | -0.01 |
| CCC12CN3CCN(CC(C3)C1O)C2 (stereo unspecified) | 1.22 | 1.03 |
| CCOC(=O)C1CCN(/C=C2/C(=O)NC(=S)N(c3cccc(OC)c3)C2=O)CC1 | 0.37 | 2.68 |
| O=C1NC(=O)N(c2ccccc2)C(=O)/C1=C/C=C/c1ccco1 | 0.02 | 0.79 |
| COc1ccc(CCNC2CCCCC2)cc1OC | 1.97 | 1.5 |
| O=c1[nH]c(=O)n(Cc2ccc(F)cc2)c(O)c1C=NCCN1CCCCC1 | 0.17 | -0.05 |
| CCCC(C)n1[nH]c(=O)c2c1NC(=O)CSC2c1ccccc1 (stereo unspecified) | 1.24 | 0.38 |
| COc1ccc(CCN)cc1OC | 0.41 | 1.95 |
| CN1CCN(c2ccc([N+](=O)[O-])c(NCc3ccco3)c2)CC1 | 0.14 | 1.55 |
| CCC(=NCCC(c1ccccc1)c1ccccc1)c1c(O)[nH]c(=O)[nH]c1=O | 1.75 | -0.43 |
| Cc1ccc(/C=C2\C(=O)NC(=S)N(c3ccc(F)cc3)C2=O)o1 | 0.06 | -1.26 |
| COc1cc(C2SCC(=O)Nc3c2c(=O)[nH]n3C2CCCCCC2)cc(OC)c1OC (stereo unspecified) | 0.21 | -0.07 |
| COc1cccc(-n2c(O)c(C=Nc3c(C)n(C)n(-c4ccccc4)c3=O)c(=O)[nH]c2=O)c1 | 1.84 | 1.42 |
| CC(C(=O)O)N(C(=O)c1ccccc1)c1ccc(F)c(Cl)c1 (stereo unspecified) | 0.31 | -0.12 |
| COc1ccc(CC2(CCc3ccccn3)C(=O)NC(=O)N(c3ccccc3C)C2=O)cc1OC (stereo unspecified) | 0.99 | 0.51 |
| COc1ccc(NC(=O)c2cc([N+](=O)[O-])ccc2N2CCNCC2)cc1 | 0.41 | 0.67 |
| CC1(C)N=C(c2ccccc2)[C@@H]2C(c3ccc([N+](=O)[O-])cc3)N21 (stereo partly specified) | 0.11 | -1.68 |
| CC[C@@]1(O)C(=O)OCc2c1cc1n(c2=O)Cc2cc3ccccc3nc2-1 | 0.68 | -0.18 |
| CCOC(=O)C1=C(N)Oc2c(c(=O)oc3ccccc23)C12C(=O)N(C)c1ccccc12 (stereo unspecified) | 0.74 | 0.57 |
| CN1C(=O)NC(=O)C(C)(C2=CCCCC2)C1=O (stereo unspecified) | 0.26 | 1.51 |
| O=c1c2ccccc2nc(-c2ccccc2)n1-c1ccncc1 | 0.22 | -0.47 |
| COc1ccc2c(c1)[C@]13CCCCC1C(C2)N(C)CC3 (stereo partly specified) | 0.79 | -1.45 |
| C=CCNC(=O)c1c(N)n(CCN2CCOCC2)c2nc3ccccc3nc12 | 1.43 | 0.31 |
| O=c1[nH]c(=S)[nH]c(O)c1N=Nc1ccc(S(=O)(=O)N2CCc3ccccc32)cc1 | 1.16 | -0.01 |
| CN1C(=O)C(=Cc2cn(CC(=O)N3CCCC3)c3ccccc23)C(=O)N(C)C1=O | 1.42 | -0.64 |
| CCCC(C)C1(CC)C(=O)NC(=Nc2ccc(F)cc2)NC1=O (stereo unspecified) | 1.44 | -0.06 |
| Cc1ccc2nc3c(cc2c1)CC1(C(=O)N(C)C(=O)N(C)C1=O)C1COCCN31 (stereo unspecified) | 1.97 | 1.48 |
| CC1CCC(C(C)C)C(OP(N)(=O)c2ccccc2)C1 (stereo unspecified) | 1.46 | 0.3 |
| COc1ccc(CN2CCN(C(=O)Cc3ccccc3)CC2)c(OC)c1 | 0.68 | -0.07 |
| C[C@]12CC[C@H](O)C[C@@H]1CC[C@@H]1[C@@H]2CC[C@]2(C)C(=O)CC[C@@H]12 | 1.31 | -0.93 |
| COc1ccc(N=Cc2c(O)n(CC3CCCO3)c(=O)[nH]c2=O)cc1 (stereo unspecified) | 0.54 | 0.54 |
| CC(CO)(CO)N=Cc1c(O)n(-c2cccc3ccccc23)c(=O)[nH]c1=O | 0.17 | -0.21 |
| COc1ccc(C2NCc3ccc4c(c3-n3cccc32)OCO4)cc1OC (stereo unspecified) | 0.35 | 0.2 |
| Cc1ccsc1C(=O)C1CCCN(Cc2cccn2-c2ccccn2)C1 (stereo unspecified) | 2.69 | -2.35 |
| COc1ccc2c(C)c(CC(=O)N3C[C@H]4C[C@@H](C3)c3cccc(=O)n3C4)c(=O)oc2c1 | 0.71 | -0.12 |
| COC1CCCCC1NCCc1ccccc1 (stereo unspecified) | 1.96 | -0.59 |
| Cc1cc(OC(C)C(=O)NCC2CCC(C(=O)O)CC2)c2c3c(c(=O)oc2c1)CCC3 (stereo unspecified) | 0.51 | 0 |
| CCCn1c(C(=O)c2ccccc2OC)nc2ccccc21 | 0.11 | 1.07 |
| CCC(=O)c1cn(Cc2ccc(C#N)cc2)c2ccccc12 | 0.83 | -0.92 |
| Oc1cc2c(cc1CN1CCN(c3ccccc3F)CC1)OCO2 | 0.64 | 0.28 |
| CC1CCCCN1Cc1cccnc1 (stereo unspecified) | 0.19 | -0.16 |
| COc1ccccc1/C=C1/C(=N/O)C2CCN1CC2 | 0.25 | 0 |
| CCCCn1c(O)c(C=NCc2ccc3c(c2)OCO3)c(=O)[nH]c1=O | 0.68 | 0.11 |
| CCOC(=O)c1cccc([P+](=O)O)c1 | 1.61 | 0.5 |
| COc1ccc(/C=C2/C(=O)NC(=O)N(c3ccc(C)c(C)c3)C2=O)cc1CN1C(=O)c2ccccc2C1=O | 1.26 | -1.52 |
| COc1ccc(/C=C2/C(=O)NC(=O)N(c3ccccc3)C2=O)cc1CN1C(=O)c2ccccc2C1=O | 0.44 | -1.29 |
| CN(C)CC1CSCCC1(O)c1ccc(Cl)cc1 (stereo unspecified) | 1.74 | -1.24 |

This is a subset, so the mix of outcomes need not match the whole.
